TRPML1 ag – qHTS for Agonists of the Human Mucolipin Transient Receptor Potential 1 (TRPML1) | TRPML1-expressing cells, Ca2+ dye fluorescence, FDSS; host cell line not named in the record; reference of the full effect not given here | AID 624414, 2012 | Mucolipin-1 (Homo sapiens), Q9GZU1 | actives 0.12% (n = 410,000) | activation, % (test concentration not listed); in the data active = activation above about 50%; inconclusive = about 30% to 50%; inactive = below about 30%; also: 0% is about no effect; the text of the record puts the active cut at 80%
Target sequence (Q9GZU1 whole entry, looked up): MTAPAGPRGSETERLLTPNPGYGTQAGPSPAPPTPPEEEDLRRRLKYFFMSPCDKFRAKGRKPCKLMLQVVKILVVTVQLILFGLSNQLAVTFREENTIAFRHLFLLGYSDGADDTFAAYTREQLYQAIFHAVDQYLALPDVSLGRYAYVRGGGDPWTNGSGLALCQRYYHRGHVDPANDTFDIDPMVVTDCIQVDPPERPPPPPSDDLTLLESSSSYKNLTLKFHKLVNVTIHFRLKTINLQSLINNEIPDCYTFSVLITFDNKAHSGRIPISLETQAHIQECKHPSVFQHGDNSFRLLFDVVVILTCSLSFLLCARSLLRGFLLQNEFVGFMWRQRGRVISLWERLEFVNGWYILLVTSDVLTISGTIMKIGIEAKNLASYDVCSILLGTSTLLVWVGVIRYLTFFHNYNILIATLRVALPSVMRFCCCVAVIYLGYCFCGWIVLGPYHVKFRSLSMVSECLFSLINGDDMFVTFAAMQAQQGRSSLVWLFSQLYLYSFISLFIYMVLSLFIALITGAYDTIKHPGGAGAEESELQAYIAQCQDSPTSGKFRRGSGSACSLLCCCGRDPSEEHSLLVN
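Tet-induced TRPML1-DL cells, 1,500 per well, cultured overnight, were loaded with a no-wash Ca2+ dye for 45–90 min. Calcium fluorescence was recorded on the FDSS for 110 s after compound addition, before the EC80 agonist (4 uM 54-4) was added.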
TRPML1 blocker – qHTS for Inhibitors of the Human Mucolipin Transient Receptor Potential 1 (TRPML1); AID 624415, 2012; TRPML1-inducible cells, Ca2+ dye fluorescence, FDSS; active compounds read low; inhibition of EC80 agonist-evoked calcium signal; activity change, negative = inhibition, % (no concentration beside the values); actives 0.02% (n = 390,000); in the data active means activity change below about -50%; inconclusive means about -30% to -50%; inactive means above about -30%;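 also: stimulus is agonist 54-4 at its EC80 concentration; % is scaled to controls: 0 for no effect and ±100 for the full control effect; compound concentration not given in the record; the text of the record puts the active cut at -80%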
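TRPML1-DL cells, Tet-induced overnight (~16 h, 37 °C) at 1,500 cells/well, were loaded with Ca8 no-wash dye plus quencher for 45-90 min at room temperature. Compounds were pinned during FDSS kinetic reading; agonist 54-4 at EC80 (4 uM final) then added.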
Six1-Eya2 inh – qHTS Assay for Inhibitors of the Six1/Eya2 Interaction | Homeobox protein SIX1 (Homo sapiens) + Protein phosphatase EYA2 (Homo sapiens), … | AlphaScreen GST-Six1/His-Eya2 binding, biochemical; active compounds read low; control for the full effect not named in the record | activity change, % (no concentration beside the values) | actives 0.56% (n = 360,000); in the data active = activity change below about -65%; inconclusive = about -30% to -65%; inactive = above about -30%; also: % is scaled to controls: 0 for no effect and ±100 for the full control effect
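Six1/Eya2 binding was read as AlphaScreen signal after compounds were pinned into GST-Six1 plus His-tagged Eya2 (5X stock 250/500 nM) in pH 8.0 Tris/NaCl/TCEP buffer, beads added, then incubated 1 h, 37 C, dark.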
D2 PAM – Beta-Arrestin HTS for Positive Allosteric Modulators of the Human D2 Dopamine Receptor: Potentiators; potentiation, % (no concentration beside the values); AID 624464, 2012; D(2) dopamine receptor (Homo sapiens), P14416; actives 0.23% (n = 360,000); DiscoveRx D2 beta-arrestin cells, luminescence, 90 min; 100% = 57 uM dopamine signal; active = potentiation of 50% or more; inconclusive = 30% to 50%; inactive = 30% or less;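 also: compound concentration not given in the record; tested on top of an EC20 dose of dopamine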
Target sequence (P14416 whole entry, looked up): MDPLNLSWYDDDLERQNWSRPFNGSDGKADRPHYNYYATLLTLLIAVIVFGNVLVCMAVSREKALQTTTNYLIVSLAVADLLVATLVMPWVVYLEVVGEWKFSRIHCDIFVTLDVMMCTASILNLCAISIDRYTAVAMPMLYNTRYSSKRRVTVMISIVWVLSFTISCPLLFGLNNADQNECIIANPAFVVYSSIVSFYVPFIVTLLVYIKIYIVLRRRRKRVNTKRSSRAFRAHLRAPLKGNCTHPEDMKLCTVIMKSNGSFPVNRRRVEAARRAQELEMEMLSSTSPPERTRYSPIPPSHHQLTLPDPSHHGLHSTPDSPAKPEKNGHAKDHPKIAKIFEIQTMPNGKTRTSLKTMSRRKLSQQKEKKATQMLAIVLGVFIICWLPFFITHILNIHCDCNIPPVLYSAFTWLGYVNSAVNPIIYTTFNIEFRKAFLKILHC
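PathHunter D2 cells, attached overnight at 37 deg C, received compound in DMSO plus dopamine at EC20 (50 nM final) for 90 min at 37 deg C. Beta-arrestin recruitment was read as luminescence after 1 h with detection reagent at ambient temperature.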
PINK1 modulator – A Quantitative High throughput Screen to Identify Chemical Modulators of PINK1 Expression; Potency, µM (series often up to 76.6 µM), inactives show at the top dose activation (PINK1 increase), hits mostly activators; PINK1 immunofluorescence, high-content cytometry, 24 h; actives 0.2% (n = 410,000); active = well fitted activation curve with a large enough effect; inconclusive = small, poorly fitted or top-dose-only effect; inactive = flat fitted curve, though single readings scatter; cell line not stated here;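 also: potency is read from the fitted curve at half-maximal effect; % of control where 0% means no effect; nearly all actives have a fitted effect of over 65% in size; a mitochondrial uncoupler was the plate control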
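Cells are seeded, rested 12 hours, then given compound at five concentrations or DMSO for 24 hours. After fixation, blocking and antibody staining, PINK1 amount and mitochondrial localization are scored; CCCP serves as control.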
D2 agonist – Beta-Arrestin HTS for Positive Allosteric Modulators of the Human D2 Dopamine Receptor: Agonists | actives 0.084% (n = 360,000) | activation, % (no concentration beside the values) | DiscoveRx PathHunter D2 beta-arrestin, luminescence, 90 min; 100% = 57 uM dopamine signal | D(2) dopamine receptor (Homo sapiens), P14416 | AID 624465, 2012; in the data active = activation above about 40%; inconclusive = about 15% to 40%; inactive = below about 15%; also: compound concentration not given in the record; the text of the record calls up to 30% inactive
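Agonist mode: compounds alone added to overnight-plated D2 PathHunter cells for 90 min at 37 C, with 57 uM final dopamine (EC100) defining full response. Beta-arrestin recruitment detected by chemiluminescent reagent, read after 1 h at ambient temperature.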
The depositor's hits bear a star; ? = inconclusive; . = not tested or not shown.

canonical_smiles	TRPML1 ag	TRPML1 blocker	Six1-Eya2 inh	D2 PAM	PINK1 modulator	D2 agonist
CC(=O)C[C@H](O)CC(=O)[C@H]1OC(=O)CCCCCCCc2ccccc21	-0.3	17	2	-4	-0.3%	-1.3
COc1ccc(C)cc1NC(=O)c1cc(C2CC2)nc2c1c(C)nn2C1CCS(=O)(=O)C1 (stereo unspecified)	5.3	13	-9	-17	4.8%	0.4
Cc1ccc(S(=O)(=O)NCCC(=O)NCCN2CCCCCC2)cc1	0.3	38	-1	-12	.	0.1
Cc1ccc(C(=O)CSc2nnc(CNc3ccc(F)cc3)o2)cc1	-0.1	-2	-11	-23	-0.1%	4.8
COc1cccc(NC(=O)CSc2nnc(-c3ccoc3C)n2CC2CCCO2)c1 (stereo unspecified)	2.1	-4	-2	-5	-3.6%	-0.6
Cc1ccc(CN2CCNC(=O)C2CC(=O)NCc2csc(C(C)C)n2)cc1 (stereo unspecified)	-0.3	-7	16	-3	-0.8%	-1.8
CCOC(=O)c1sc(NC(=O)C(CC)Sc2nc3ccccc3[nH]2)nc1C (stereo unspecified)	4.3	-7	-9	-3	3.9%	-1.5
O=S(=O)(NCCCN1CCOCC1)c1ccc(Cl)cc1	0.2	9	6	-16	2.9%	2.6
COc1ccc(/C=N/OCC(=O)N=Nc2c(O)[nH]c3ccc(Br)cc23)cc1OC	-0.6	9	-22	0	2.5%	5.9
Fc1ccc(Nc2ncnc3ccccc23)cc1	-0.4	-5	9	-6	-0.3%	-1.1
Cc1ccc(C(=O)N(C)CC(=O)Nc2cccc(F)c2)cc1S(=O)(=O)N1CCCCC1	0.5	-6	3	7	-0.5%	-1.8
COc1ccc(-c2noc(COc3ccc4ccccc4c3Br)n2)cc1OC	-0.6	27	2	-2	1.2%	-2.1
COCCN(C(=O)CSc1nc2ccc(C)cc2[nH]1)c1c(N)n(Cc2ccccc2)c(=O)[nH]c1=O	0.8	0	4	-2	0.8%	2.8
CCc1ccc(CN(C(=O)c2cccs2)C2CCS(=O)(=O)C2)cc1 (stereo unspecified)	-1.6	1	5	-4	0.5%	-1.5
Cc1ccc(NC(=O)C(NC2CCCC2)c2ccccc2)cc1Cl (stereo unspecified)	-0.9	29	7	-18	?	-7.4
COc1ccccc1CNC(=O)CSc1ccccc1	0.0	-1	4	-8	-0.7%	-1.3
Cc1cc2ncn(C(=O)c3cc(-c4ccccc4)nc4ccccc34)c2cc1C	0.5	23	10	-21	1.6%	5.0
CCOc1ccc(-c2cc(C(=O)N/N=C/c3cccnc3)c3ccccc3n2)cc1	-0.9	6	-10	27	?	1.3
CC(C)CCNC(=O)Cn1c2c(c(-c3ccccc3Cl)cc1=O)CCC2	-0.1	-14	-6	-9	0.4%	-7.7
COc1ccccc1CNC(=O)COc1ccc(C)nc1[N+](=O)[O-]	0.5	-23	1	-3	-1.2%	1.5
COc1ccc2oc(-c3ccc(C)c(NC(=O)COc4cc(C)cc(C)c4)c3)nc2c1	-0.1	76	.	.	1.9%	.
Cc1ccc2c(c1)C(=O)CCN2	-0.1	-13	2	29	.	-1.0
CCC(=O)Nc1nc2c(s1)COc1ccccc1-2	0.1	-14	6	-1	2.6%	-1.6
COc1cccc(-n2c(=O)c3sccc3n(Cc3cc(=O)n4cc(Cl)ccc4n3)c2=O)c1	2.1	14	.	.	-0.3%	.
Cc1ccc(S(=O)(=O)CCC(=O)NCc2ccccc2F)cc1	-0.1	-24	6	-6	-0.1%	-5.4
COc1ccc(NC(=O)c2csc3c2CCCCC3)cc1	2.2	2	.	.	0.6%	.
CCn1cc(C(=O)N[C@@H](C)C(=O)NCCCN2CCOCC2)c(=O)c2cc3c(cc21)OCO3	0.1	-8	-3	-8	-0.5%	-1.5
O=C(N/N=C/c1cn(-c2ccccc2)nc1-c1cc2ccccc2o1)c1ccncc1	1.3	37	-7	-11	2.5%	-0.2
COc1ccc(CN2C(=O)CSC2c2ccncc2)cc1 (stereo unspecified)	0.9	-16	8	-1	-0.4%	1.2
c1ccc(CNc2ncnc3scc(-c4cccs4)c23)nc1	0.9	-7	9	-8	-1.6%	0.9

A different layout for 4 compounds above.
CC(C)CCNC(=O)Cn1c2c(c(-c3ccccc3Cl)cc1=O)CCC2
- TRPML1 ag: -0.1
- TRPML1 blocker: -14
- Six1-Eya2 inh: -6
- D2 PAM: -9
- PINK1 modulator: 0.4%
- D2 agonist: -7.7
COc1ccccc1CNC(=O)COc1ccc(C)nc1[N+](=O)[O-]
- TRPML1 ag: 0.5
- TRPML1 blocker: -23
- Six1-Eya2 inh: 1
- D2 PAM: -3
- PINK1 modulator: -1.2%
- D2 agonist: 1.5
COc1ccc2oc(-c3ccc(C)c(NC(=O)COc4cc(C)cc(C)c4)c3)nc2c1
- TRPML1 ag: -0.1
- TRPML1 blocker: 76
- Six1-Eya2 inh: .
- D2 PAM: .
- PINK1 modulator: 1.9%
- D2 agonist: .
Cc1ccc2c(c1)C(=O)CCN2
- TRPML1 ag: -0.1
- TRPML1 blocker: -13
- Six1-Eya2 inh: 2
- D2 PAM: 29
- PINK1 modulator: .
- D2 agonist: -1.0

(more compounds)
canonical_smiles	TRPML1 ag	TRPML1 blocker	Six1-Eya2 inh	D2 PAM	PINK1 modulator	D2 agonist
CCc1ccc(CN(C)CC(=O)Nc2ccc(S(=O)(=O)N3CCOCC3)cc2)cc1	0.8	8	-3	0	-0.5%	-2.3
CN(Cc1ccccc1)N=Nc1ccccc1	1.5	-8	44	-8	8.7%	-1.4
CN(C(=O)CC1C(=O)NCCN1Cc1ccc2ccccc2c1)C1CCOCC1 (stereo unspecified)	-0.5	10	-3	-5	-1.1%	0.3
COc1ccc(NC(=O)CCNC(=O)c2ccco2)cc1Cl	-0.5	-7	5	2	6.0%	0.6
CN(CC1CCCO1)S(=O)(=O)c1ccc(C(=O)Nc2nc(-c3ccccn3)cs2)cc1 (stereo unspecified)	0.1	-9	?	7	1.6%	2.4
CCCN1Cc2cccc(C(=O)N3CCN(c4cc(Cl)ccc4C)CC3)c2C1=O	-0.1	-8	-1	-14	0.1%	-6.0
CCOC(=O)C1CCN(C(=O)C2c3ccccc3C(=O)N(C)C2c2ccc(OC)cc2)CC1 (stereo unspecified)	-0.4	-22	2	3	0.6%	-2.6
Cc1ccc2nc(/C(C#N)=C/c3cn[nH]c3-c3ccc(F)cc3)[nH]c2c1	-1.5	-7	-7	4	3.9%	1.2
COc1cc(/C=C/C(=O)c2ccc(C)c([N+](=O)[O-])c2)cc(OC)c1O	2.8	10	1	-8	-1.7%	-0.9
COC1OC(COC(=O)CNC(=O)OC(C)(C)C)C(O)C(O)C1O (stereo unspecified)	0.3	41	5	-12	-0.4%	-6.0
Cc1ccsc1/C=N/NC(=S)NCc1ccccc1	-0.6	-9	-16	16	1.5%	-0.5
Cc1ccc(C(=O)CCNc2ccccc2)o1	-0.7	-12	-3	29	0.8%	-4.6
COc1ccc(NC(=O)c2c(N)c(C(=O)c3ccc(C)cc3)n3ccccc23)cc1OC	1.3	9	.	.	10%	.
COc1cc(C)nc(Oc2ccc(OCc3ccccc3)nn2)n1	3.1	28	3	-7	-2.0%	-1.2
COc1ccc(NC(=O)COC(=O)C2=COCCO2)cc1OC	-0.2	8	-5	-4	-0.5%	-0.5

(further entries)
Under each structure: TRPML1 ag	TRPML1 blocker	Six1-Eya2 inh	D2 PAM	PINK1 modulator	D2 agonist
- Cc1cccc(NC(=O)CSCC(=O)Nc2ccc(S(=O)(=O)N3CCOCC3)cc2)c1
→ 1.4	-11	-6	-21	-3.9%	-2.5
- CN1CCc2nc(SCC(=O)Nc3ccc(OC(F)(F)F)cc3)c(C#N)c(-c3cccs3)c2C1
→ 0.7	9	-15	-24	2.4%	-0.4
- COc1ccc(OC)c2sc(N(CCN(C)C)C(=O)/C=C/c3cccs3)nc12
→ -0.2	13	-17	-4	-1.4%	0.0
- COc1ccc(CNC(=O)COC(=O)c2c(C)nn(-c3ccccc3)c2C)cc1OC
→ 0.5	0	-20	-24	1.6%	?
- COC(=O)[C@@]12CCCN1[C@H](c1ccc(-c3ccccc3)cc1)[C@@H]1C(=O)N(C)C(=O)[C@@H]12
→ -0.3	-6	-6	-14	-0.1%	-3.4
- Cc1cn(-c2ccc(Br)cc2)[nH]c1=O
→ 1.3	3	-4	-4	.	0.4
- Nc1ccc(S(=O)(=O)C(F)(F)F)cc1N
→ -0.3	-5	-1	0	-0.2%	3.3
- O=C(NC(Cc1ccccc1)C(=O)NCCc1ccccn1)c1cccs1 (stereo unspecified)
→ 0.0	16	7	-4	-0.4%	-0.9
- C(=N\N1CCN(C2c3ccccc3-c3ccccc32)CC1)/c1cccnc1
→ 0.3	10	?	-15	2.8%	-2.8
- CN(C)c1nc(SCc2ccc(Cl)cc2)nc2c1CCCC2
→ -0.5	38	18	-2	3.0%	-0.2
- O=C(CN1CCCN(Cc2ccc(F)cc2)S1(=O)=O)Nc1ccc2c(c1)OCCO2
→ 0.6	-19	.	.	0.0%	.
- CCOc1ccc(S(=O)(=O)Nc2cnc3ccccc3c2)cc1
→ 0.4	-2	-3	-10	-0.9%	-1.0
- COc1ccc(CCNC(=O)CCCCCn2c(=O)[nH]c3cc(OC)c(OC)cc3c2=O)cc1OC
→ -0.5	-2	.	.	1.1%	.
- CCn1nnnc1SCC(=O)Nc1ccc(OCc2ccccc2)cc1
→ 0.6	-8	-1	-27	-0.2%	-3.8
- Cc1ccc(-c2nn(-c3ccccc3)cc2CN(Cc2ccccc2)C(=O)c2ccco2)o1
→ -0.2	-10	?	-28	.	-6.6
- COc1ccccc1CNC(=O)COC(=O)CSc1ccc(Cl)cc1
→ 5.9	1	7	-15	-2.7%	4.0

From PubChem
